Compound activity from PubChem BioAssay.
CtBP-E1A inh = inhibitors of CtBP/E1A interaction; activity change, % (test concentration not listed); AID 651724; AlphaScreen GST-E1A/His-CtBP binding, 1536-well; stronger effect = lower value; control for the full effect not named in the record; hit rate 0.49% among 340,000; in the data active means activity change below about -65%; inconclusive means about -30% to -65%; inactive means above about -30%; also: compound concentration not given in the record
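Protein mix (5X: 125 nM each GST-E1A, His-CtBP) was incubated with pinned compound 2 h at 37 deg C in dark, in 50 mM Tris pH 8.0 buffer with 300 mM NaCl. Glutathione donor and nickel acceptor beads followed; AlphaScreen signal read after 1 h.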
Six1-Eya2 inh = inhibitors of human Six1/Eya2 interaction; AID 651725; activity change, % (concentration not given with the values); hit rate 0.56% among 360,000; AlphaScreen GST-Six1/His-Eya2 binding, biochemical; stronger effect = lower value; control for the full effect not named in the record; in the data active = activity change below about -65%; inconclusive = about -30% to -65%; inactive = above about -30%
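Six1/Eya2 binding was read as AlphaScreen signal after compounds were pinned into GST-Six1 plus His-tagged Eya2 (5X stock 250/500 nM) in pH 8.0 Tris/NaCl/TCEP buffer, beads added, then incubated 1 h, 37 C, dark.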
* = called active by the depositor. % is scaled to controls: 0 for no effect and ±100 for the full control effect.

#1 COc1cccc(S(=O)(=O)Nc2ccc3c(c2)C(=O)N(C)C[C@H](OC)[C@H](C)CN[C@@H](C)CO3)c1
#2 COc1ccc(C(C(=O)Nc2ccc(F)cc2)N2CCN(c3cccc(C(F)(F)F)n3)CC2)cc1 (stereo not given)
#3 Nc1sccc1C(=O)N1CCN(c2ccccc2)CC1
#4 CCOC(=O)N1CCN(C(=O)C[C@@H]2C[C@@]3(C(=O)OCC)CCCC=C3N(CCc3ccc(OC)c(OC)c3)C2=O)CC1
#5 CC(C)N1C(=O)c2ccccc2NC(=O)C1C(=O)NC1CC1 (stereo not given)
#6 COc1cccc(C(Nc2ccccc2)c2ccc3ccc(C)nc3c2O)c1 (stereo not given)
#7 O=c1c(-c2cccs2)nc2ccccc2n1C(c1ccccn1)c1nc2ccccc2[nH]1 (stereo not given)
#8 CC(=O)/C=C1\OCc2cc(OCc3ccccc3)ccc21
#9 CCCCNC(=O)c1nc(-c2cccnc2)oc1-c1ccc(OC(F)(F)F)cc1
#10 COC1=CC(=O)OC(c2cccc([N+](=O)[O-])c2)C1 (stereo not given)
#11 COc1cccc(S(=O)(=O)N2C[C@H](O)COC[C@H]3O[C@@H](CC(=O)N4CCN(C)CC4)CC[C@@H]32)c1
#12 CCCCNC(=O)c1cc(-c2ccccc2)sc1N
#13 CC1(C(=O)Nc2ccc3c(c2)OCCO3)CN(S(C)(=O)=O)CC(=O)N1CCc1c[nH]c2ccccc12 (stereo not given)
Screen / compound no.,1,2,3,4,5,6,7,8,9,10,11,12,13
Six1-Eya2 inh,3,-2,-5,-3,0,-25,-19,-4,-8,7,1,-9,-1
CtBP-E1A inh,-1,-2,-3,1,1,-5,-2,-9,1,6,1,0,-7

Not all compounds are listed, so the mix of outcomes need not match the whole.
